Bioassay records deposited in PubChem BioAssay by Fisher Drug Discovery Resource Center.
NPYLR7 ag: activates Aedes aegypti NPYLR7 receptor | HEK293T NPYLR7/Galpha15, GCaMP6s calcium fluorescence | activation, % at 10 µM | hit rate 0.15% among 270,000 | AID 1259423; in the data active means activation above about 40%;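 further: 0% = vehicle and 100% = reference agonist at the receptor; some compounds past the cut are filed as inactive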
NPYLR7 ag max-min: further read-out of NPYLR7 ag, marked with its call; activation, %; measured here: Max-Min RFU normalised activation; some inactives read as strong as hits;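 span of the calcium signal over five minutes; 0% = vehicle and 100% = native peptide agonist; compound fluorescence can raise it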
An asterisk follows results filed as active; & = joins results of further samples.

SMILES	NPYLR7 ag	NPYLR7 ag max-min
O=C(c1ccncc1)c1c(Nc2ccc(F)cc2)[nH]c(=O)c2ccccc12	1	3
COC(=O)CN(C)C(=O)C1CCC(=O)N(CCc2cccc(F)c2)C1 (stereo not given)	7	2
CCO/C(=C/c1oc2ccc(OC)cc2[n+]1C)CC	-9	-20
CN1CCN(Cc2n[nH]c(=O)n2CCc2ccccc2F)CC1	7	4
Cc1[nH]c(=S)c(C(N)=O)c(C)c1C	6	6
COC(=O)c1cc2n(n1)CCCN(Cc1c[nH]c3c(C)cccc13)C2	-11	-19
O=C(O)C1CCCN(c2ccc(-n3ccnc3)nn2)C1 (stereo not given)	-1	2
Cc1nnc(SC(C(N)=O)C(N)=O)s1	2	1
CNc1cc(-c2ccccc2OCCn2ccnc2)c2cc[nH]c2n1	-6	-11
Cc1cccc(C)c1NC1=NC2CS(=O)(=O)CC2S1 (stereo not given)	0	0
O=C1OC(NC(=O)c2ccccc2)C(Br)=C1Br (stereo not given)	6	1
C=CCNCC(=O)N(Cc1ccc2c(c1)OCO2)Cc1ccco1	15	19
CC=CCn1c(=O)c2c(nc3n2C(C)C(C)=NN3CC(=O)OCC)n(C)c1=O (stereo not given)	6	8
COc1cc(-c2cccc(NC(C)=O)c2)cc(OC)c1OC	25	17
N=C(N)c1ccc(N=NNc2ccc(C(=N)N)cc2)cc1	-2	-3
Cc1cc(C)cc(NC(=O)COc2coc(CN3CCc4ccccc4C3)cc2=O)c1	8	4
CCc1nccc(-c2nccn2CCOc2ccccc2F)n1	7	2
COC(=O)C1=C(C)NC2=C(C(=O)CC(c3ccc(OC)cc3)C2)C1c1cc(Cl)c(O)c(OC)c1 (stereo not given)	-12	-15
Cc1ccc(CNc2cccc(C(=O)N(C)CCC3CCOCC3)c2)cc1	1	-1
CC1CN(C(CNC(=O)c2cc(Cl)cn2C)c2c(F)cccc2Cl)CCO1 (stereo not given)	1	2
O=C(NCCc1csc(-c2cccnc2)n1)c1cnn2c1CCCC2	4	2
CC(CCc1ccccc1)NC(=O)C1CCCN(S(=O)(=O)c2ccc(F)cc2)C1 (stereo not given)	1	-6
c1ccc2c(c1)nnn2CNc1nonc1-c1ncon1	0	-2
CCCN1C(=O)C(c2c(C)[nH]n(-c3ccc(F)cc3)c2=O)=C([n+]2cc(C)cc(C)c2)C1=O	0	0
O=S(=O)(N1CCOCC1)N1CC(c2ccccn2)C1	6	5
Cc1cc(C(=O)N2CCN3CCNC(=O)C3C2)ccc1-n1cccc1 (stereo not given)	7	7
Cn1cncc1-c1nc2c(cnn2Cc2cccc(F)c2)[nH]1	11	1
Cc1cccc(-n2nnc(-c3nnc(-c4ccco4)o3)c2C)c1	4	3
Cc1cc(C)n2ncc(CN3CCC(Cc4noc(C5CC5)n4)CC3)c2n1	3	0
O=S1(=O)CCC(S(=O)(=O)N2CCOCC2)C1 (stereo not given)	2	0
O=C(O)c1ccccc1N1C(=O)C2C3C=CC(C3)C2C1=O (stereo not given)	-7	-11
CC(C)NC(=O)N1CCC(c2nnc(C3CC3)s2)CC1	-7	-5
Cc1ccc(Cl)c2sc(N(CCCn3ccnc3)C(=O)c3cccs3)nc12	-8	-16
COc1ccccc1Nc1nc(-c2ccccc2)c2cc(C)ccc2n1	-7	-4
COc1ccc(Cc2ncc3c(n2)CN(C(=O)[C@@H]2C[C@@H](O)CN2)C3)cc1	-2	-4
N#Cc1cc(NC(=O)C2CCN(CC(F)(F)F)CC2)ccc1Cl	6	3
COc1ccc(Br)cc1CN(C)S(=O)(=O)N1CCC(C)CC1	6	0
COc1ccc(OC)c(C2SCC(=O)N(CC(=O)Nc3ccccc3)c3c2c(-c2ccccc2)nn3C(C)(C)C)c1 (stereo not given)	-25	-7
O=C(O)CSc1nccc2c(OCc3ccc(F)cc3)cccc12	0	0
Cc1ccnn1-c1cc(SCC(=O)Nc2ccc(Cl)cc2C(F)(F)F)ncn1	-9	-11
O=C(Nc1ccc2c(c1)CN(C(=O)CCCc1cccs1)CC2)c1ccccn1	1&-4	-2&-5
Cc1nn(C)c(C)c1CCC(=O)N[C@@H]1c2ccccc2C[C@@H]1O	15	-2
CCCCNC(=O)CN1CCN(Cc2csc(C(C)(C)C)n2)CC1	-3	-4
CCOC(=O)c1ccc(N=c2oc3ccc(OC)cc3cc2-c2nc3ccccc3[nH]2)cc1	-1	7
Cc1nc2ccccc2nc1N1CCN(S(=O)(=O)c2ccccc2C(F)(F)F)CC1	6	4
CC1CCCN(S(=O)(=O)c2ccc3c(c2)nc(SCc2cccc(Br)c2)n3C2CCCC2)C1 (stereo not given)	12	4
CCOC(=O)c1ccc(NC(=O)c2sc(NC(=O)c3ccccc3F)c(C(=O)OCC)c2C)cc1	-4	0
CC(C)(C)OC(=O)NCC(=O)Nc1n[nH]c(-c2ccccc2F)n1	16	10
Cc1cccc(CN(Cc2ccccc2)C(=O)c2nc(C)oc2C)n1	2	-1
O=C(CCC1CCN(Cc2cc3ccccc3o2)CC1)NC1CC1	2	-2
CN(Cc1nc2ccccc2s1)c1ncnc2sc3c(c12)CCCC3	-4	-7
CCCS(=O)(=O)Nc1ccc(N(C)C)c(CN(CC2CCCO2)S(=O)(=O)c2ccc(F)cc2)c1 (stereo not given)	0	9
COc1ccc(NC(=O)NCc2nnnn2C2CCCCC2)cc1OC	-2	-2
O=C(c1ccc(Cl)cc1)N1CCc2ccccc2C1c1ccc(F)cc1 (stereo not given)	20	15
C=CCNCc1nc(NCC=C)c2c(C)c(C(=O)OCC)sc2n1	0	1
CCc1nn(-c2ccccc2)c(Oc2ccccc2)c1CN(Cc1ccccc1)CC(O)CC (stereo not given)	-5	0
CN1C(=O)CC(CC(=O)N2CCC(c3ccncc3)CC2)(c2ccc(-c3ccccc3)cc2)C1=O (stereo not given)	12	2
Cc1[nH]n(-c2ccc(Cl)cc2)c(=O)c1C1=C([n+]2ccccc2)C(=O)N(C(C)C)C1=O	-6	-2
O=C(Nc1nnc(SCc2ccccc2F)s1)c1ccccc1Cl	20	21
COCc1nc(-c2ccc(CN3CCN(C(=O)C4CC(=O)N(Cc5ccccc5)C4)CC3)cc2)no1 (stereo not given)	4	16

The results go on.
SMILES	NPYLR7 ag	NPYLR7 ag max-min
CN(Cc1cccc(-n2cccn2)c1)Cc1cn(C)nc1-c1ccc2c(c1)OCCO2	-4	-9
O=C(CCl)N1CCN(Cc2ccc(Br)s2)CC1	12	12
Nc1ccc(N2CCCC2)cc1C(=O)O	1	-1
CCCn1cnnc1CNC1CCc2ccc(OC)cc2C1 (stereo not given)	4	3
CCc1ccc(-c2nccn2-c2ccc(-c3n[nH]c(C)n3)cc2)o1	5	2
O=C(Nc1ccccc1Oc1cccnc1)C1CCCN(C2Cc3ccccc3C2)C1 (stereo not given)	1&7	1&0
CCOC(=O)c1cc(C#N)c(SCc2ccc(C(=O)N3C4CCC3CC(Oc3ccccc3C(C)C)C4)cc2)nc1C (stereo not given)	29	28
O=C(CCn1nnc(-c2ccccc2)n1)N1CCCC1c1ccccn1 (stereo not given)	3	1
Cc1cccc(N2CCN(C(=O)c3cc(Cn4ccnc4C(C)C)[nH]n3)CC2)n1	16	10
CCCCCc1ccc(C(=O)NCc2nnc(SCc3ccc(F)cc3)n2-c2cc(Cl)ccc2Cl)cc1	1	16
CC(=O)N(Cc1cc(NC(=O)c2ccco2)ccc1N(C)C)CC1CC1	5	9
CC(NC(=O)c1ccc(Br)s1)C(=O)Nc1cnc(C(C)(C)C)nc1 (stereo not given)	-6	-6
Cn1c(COc2ccc(Cl)cc2)n[nH]c1=S	-1	4
CCS(=O)(=O)N1CCCC(C(=O)NC2CCCC[C@H]2N(Cc2ccc(Cl)cc2)S(=O)(=O)c2ccccc2)C1 (stereo not given in full)	19	15
Clc1ccc(C2CC(c3ccc(Br)cc3)=Nc3nnnn32)c(Cl)c1 (stereo not given)	-7	-8
OCc1ccc(CNC2CCCSC2)o1 (stereo not given)	23	15
Cc1ccccc1C(=O)Nc1nc(-c2ccc([N+](=O)[O-])cc2)cs1	-2	-2
O=C1N(Cc2ccccn2)C(=O)C2(CCN(Cc3ccc4c(c3)OCO4)CC2)N1CCc1ccccc1	9	-3
CCOc1c(N)cc(Cl)cc1Br	4	1
Cc1nn2c(ncc3c(=O)n(-c4ncn[nH]4)ccc32)c1-c1ccccc1	2	3
CC(C)Cc1nc2ccc(Br)cn2c1NC1CCCCC1	7	14
CC(c1ccccc1)N(Cc1cccc(Oc2ccccc2)c1)Cc1nc(C(=O)NCc2cccnc2)co1 (stereo not given)	22	31
CNc1cccc(-c2cccc(S(C)(=O)=O)c2)n1	3	-1
CC(C)CN(Cc1cccn1Cc1ccccc1Cl)C(=O)CN(C(=O)c1ccc2c(c1)OCO2)C(C)C	0	14
Cc1ccc(C(=O)Nc2ccc(N3CCN(C(=O)NCc4ccc(Cl)cc4)CC3)nc2)cc1	25	25
COc1cccc2c3c(c(=O)[nH]c12)CC(C)(C)O3	-7	-9
CCCc1cc(CNC(=O)COc2c(C)ccc(C)c2C)on1	8	-3
COc1c(C)cc(S(=O)(=O)NCC(c2ccsc2)N(C)C)cc1C (stereo not given)	11	3
O=c1[nH]c2ccc(S(=O)(=O)NC3CC3)cc2[nH]1	16	12
O=C(NN=Cc1cccc([N+](=O)[O-])c1)c1cc(-c2ccc3c4c(cccc24)CC3)n[nH]1	4	-2
CCOc1ccccc1OC1CCN(C(=O)c2c[nH]c3ncccc23)CC1	11	10
COc1ccc(C2CCCN2Cn2nc(-c3ccc(F)cc3)n(C)c2=S)c(OC)c1 (stereo not given)	3	3
COc1ccc(C(=O)C2CCCN(C(=O)c3ccc4cc[nH]c4c3)C2)c(C)c1 (stereo not given)	8	4
COCCn1cnnc1Cn1ccnc1-c1ccccc1C	1	1
Cc1ccc(CN2CCCc3c2[nH]c2ccccc32)c2ccccc12	-22	-25
CSc1nc2ncc3c(=O)n(Cc4cccnc4)ccc3n2n1	1	6

Gathered by group: those above containing a COOH group.
SMILES	NPYLR7 ag	NPYLR7 ag max-min
O=C(O)C1CCCN(c2ccc(-n3ccnc3)nn2)C1 (stereo not given)	-1	2
O=C(O)c1ccccc1N1C(=O)C2C3C=CC(C3)C2C1=O (stereo not given)	-7	-11
O=C(O)CSc1nccc2c(OCc3ccc(F)cc3)cccc12	0	0
Nc1ccc(N2CCCC2)cc1C(=O)O	1	-1

(continued)
SMILES	NPYLR7 ag	NPYLR7 ag max-min
Cc1ccccc1C(=O)NC(C(=O)N1CCCC1)C1CCN(C(=O)c2ccco2)CC1 (stereo not given)	30	31
O=C(NCCCCOc1ccc(F)cc1)N1CCC(N2CCCCC2)CC1	-5	-4
COC(=O)c1ccccc1C(=O)N1CCC(CO)(Cc2ccc(Cl)cc2)CC1	3&8	-2&11
Cc1cc(C)n(-c2ccc(NC(=O)C3CCN(C(=O)Cc4ccn(C)c4)CC3)cc2)n1	23	21
CCC1CCCCC1NC(=O)c1ccc2c(c1)nc(C)n2C (stereo not given)	-22	-23
CNc1ccc(-c2cccc(C(C)=O)c2)cn1	2	-1
Cc1cccc(N2CCC(N3CCC(CO)(Cc4ccccc4)CC3)CC2)c1C	5	9
CC(C)[C@H](Nc1ccc(C(F)(F)F)cc1Cl)C(=O)N1CCc2ccccc21	2	-1
COc1cccc(-c2cc(C(=O)O)c3[nH]c(-c4ccccc4)nc3n2)c1O	-2	-3
Cc1ncc(C)c(N2CCCC(c3[nH]ncc3Cc3ccccc3)C2)n1 (stereo not given)	14	7
CCCCCCCC(=O)Nc1ccc(-n2nc(OCCOCC)nc2-c2ccccc2C)cc1	7	13
Cc1cc2oc(=O)cc(Cn3ccsc3=N)c2cc1C(C)C	3	2

Whole records, quoted from the list.
Results for CCCCCCCC(=O)Nc1ccc(-n2nc(OCCOCC)nc2-c2ccccc2C)cc1 → NPYLR7 ag: 7; NPYLR7 ag max-min: 13
Results for Cc1cc2oc(=O)cc(Cn3ccsc3=N)c2cc1C(C)C → NPYLR7 ag: 3; NPYLR7 ag max-min: 2

Next records
SMILES	NPYLR7 ag	NPYLR7 ag max-min
O=C(NCC(=O)N1CCOC(COCc2c(Cl)cccc2Cl)C1)c1ccco1 (stereo not given)	25	37
CCNC(=S)NC(C(C)C)C1c2cc(OC)c(OC)cc2CCN1CC (stereo not given)	-9	1
Cc1nc2cc(C(F)(F)F)ccc2n1C1CCN(C(=O)c2ccc[nH]2)CC1	6	4
Cc1ncc(C(=O)N2CCC(c3cc(Cc4ccccc4)[nH]n3)CC2)c(C)n1	-1	0
CCC(C)NC(=O)CCN(CCCN1CCOCC1)c1nc(-c2ccccc2Cl)nc2ccccc12 (stereo not given)	34	39
CC1CN(c2ncnc3c2cnn3CCNC(=O)CCCc2ccccc2)CC(C)O1 (stereo not given)	0	-3
CN1CCC2(CCC1=O)CCN(C(=O)CCN1CCNCC1)CC2	0	-1
Cc1cc(C(=O)OC(C)C(=O)c2ccccc2)c2ccccc2n1 (stereo not given)	7	5

For reference, part of the list above:
SMILES	NPYLR7 ag	NPYLR7 ag max-min
O=C(c1ccncc1)c1c(Nc2ccc(F)cc2)[nH]c(=O)c2ccccc12	1	3
COC(=O)CN(C)C(=O)C1CCC(=O)N(CCc2cccc(F)c2)C1 (stereo not given)	7	2
CCO/C(=C/c1oc2ccc(OC)cc2[n+]1C)CC	-9	-20

7 compounds picked at random from those above:
SMILES	NPYLR7 ag	NPYLR7 ag max-min
Cc1ccccc1C(=O)NC(C(=O)N1CCCC1)C1CCN(C(=O)c2ccco2)CC1 (stereo not given)	30	31
CCCn1cnnc1CNC1CCc2ccc(OC)cc2C1 (stereo not given)	4	3
Cc1cccc(C)c1NC1=NC2CS(=O)(=O)CC2S1 (stereo not given)	0	0
Cc1cc(C)n2ncc(CN3CCC(Cc4noc(C5CC5)n4)CC3)c2n1	3	0
CCCN1C(=O)C(c2c(C)[nH]n(-c3ccc(F)cc3)c2=O)=C([n+]2cc(C)cc(C)c2)C1=O	0	0
Cc1ccc(Cl)c2sc(N(CCCn3ccnc3)C(=O)c3cccs3)nc12	-8	-16
C=CCNCC(=O)N(Cc1ccc2c(c1)OCO2)Cc1ccco1	15	19

These rows are one share of the data. The share of hits here may be higher or lower than overall.
